Assay outcomes (PubChem BioAssay)
UCH37 inh: inhibitors of human deubiquitinating enzyme UCH37. purified proteasome/UCH37, Ub-AMC cleavage fluorescence. inhibition, % (test concentration not listed). 330,000 compounds, 0.33% hits. Q9Y5K5;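 active = mean of two replicates above 20%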;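 also: 0% = compound-free wells with enzyme and 100% = wells lacking proteasome; stock transfer was 100 nL into about 20 µL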
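Material: human UCH37 enzyme supplied as purified proteasome complex / Amount: 0.15 nM proteasome as dispensed / Buffer or medium: pH 7.4 Tris-HCl (50 mM) with ovalbumin, ATP-MgCl2, DTT / Times: preincubation 30 min, reaction 25 min, room temperature / Technique: AMC fluorescence from Ub-AMC cleavage, excitation 355 nm, emission 460 nm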
HNF4A DNA FP: change in binding of human HNF4 alpha to DNA; P41235; HNF4a-FITC DNA binding, fluorescence polarization, 1 h; activity change, % at 10 µM; 360,000 compounds, 0.3% hits; AID 1224865; in the data active = activity change above about 30%, passing the limit was not always enough;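 also: controls were the assay level and a saturating level of protein; the project sought stronger binding though the title names inhibitors; some compounds called inactive have numbers as strong as hits; positive values seem to mean higher polarization but the record does not say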
Target sequence (P41235 whole entry, looked up): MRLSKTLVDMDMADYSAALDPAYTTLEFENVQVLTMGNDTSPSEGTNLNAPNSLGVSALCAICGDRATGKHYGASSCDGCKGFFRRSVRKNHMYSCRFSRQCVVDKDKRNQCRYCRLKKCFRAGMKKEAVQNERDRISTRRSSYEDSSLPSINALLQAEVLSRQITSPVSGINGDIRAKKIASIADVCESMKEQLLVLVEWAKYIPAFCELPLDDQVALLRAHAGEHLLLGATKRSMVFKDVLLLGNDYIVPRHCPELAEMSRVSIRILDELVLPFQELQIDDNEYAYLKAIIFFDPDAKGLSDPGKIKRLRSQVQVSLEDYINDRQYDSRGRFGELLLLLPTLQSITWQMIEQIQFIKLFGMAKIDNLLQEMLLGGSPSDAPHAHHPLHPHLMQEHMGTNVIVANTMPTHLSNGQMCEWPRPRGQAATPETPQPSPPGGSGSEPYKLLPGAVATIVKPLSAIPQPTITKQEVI
B2AR ag: activates human beta-2 adrenergic receptor causing internalization; AID 504454; 340,000 compounds, 0.43% hits; response, % (no concentration beside the values); P07550; Am2.2-beta2AR cells, FAP receptor internalization, flow cytometry; reference of the scale not given here;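 active = response above a set limit, near 3 SD of response in nonfluorescent compounds, cut at about 42% in these data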;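 also: stock transfer was 100 nL into about 11 µL; a reference agonist was the positive control; negative values mostly stem from fluorescent compounds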
Target sequence (P07550 whole entry, looked up): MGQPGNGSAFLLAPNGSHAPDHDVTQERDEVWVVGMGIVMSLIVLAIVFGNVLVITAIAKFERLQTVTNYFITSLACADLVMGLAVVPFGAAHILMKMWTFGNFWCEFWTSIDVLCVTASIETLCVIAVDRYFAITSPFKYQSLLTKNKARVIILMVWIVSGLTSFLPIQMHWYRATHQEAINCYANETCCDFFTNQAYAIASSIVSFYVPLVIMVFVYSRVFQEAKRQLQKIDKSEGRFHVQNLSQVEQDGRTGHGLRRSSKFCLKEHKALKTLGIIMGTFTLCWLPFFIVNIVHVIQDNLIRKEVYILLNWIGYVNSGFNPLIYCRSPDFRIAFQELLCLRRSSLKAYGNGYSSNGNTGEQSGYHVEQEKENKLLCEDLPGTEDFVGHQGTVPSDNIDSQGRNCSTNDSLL
E coli growth: blocks Escherichia coli growth; OD600 absorbance (no concentration beside the values); OD600, 23 h; stronger effect = lower value; 330,000 compounds, 0.21% hits;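 active = OD600 absorbance below the run mean of sample wells minus 3.6 SD, in any replicate, cut at about 0.56 in these data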;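 also: stock transfer was 300 nL into about 60 µL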
LANA-H2B inh: blocks KSHV LANA binding to histone H2A/H2B | cell-free LANA-H2A/H2B peptide, fluorescence polarization | inhibition, % (concentration not given with the values) | 320,000 compounds, 0.6% hits; in the data active = inhibition mostly above about 10%, no sharp cut-off; inactive = mostly below about 6.7%;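 also: stock transfer was 7.5 nL into about 10 µL; 0% = median of vehicle wells and 100% = median of positive control wells; one replicate is shown; the record names a cut of 25% in any replicate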
A1 inh: inhibitors of the anti-apoptotic protein A1, read as caspase activation. caspase activation, % (no concentration beside the values). 330,000 compounds, 0.066% hits. MEF A1-2A-BIM cells, Caspase-Glo 3/7 luminescence, 3 h; percent of clofoctol response, vehicle zero;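 active = over half of replicate activation scores above 10%, or exactly half above 10 with the replicate mean above 10; inconclusive = replicate mean below 10 yet half the replicates above 10; inactive = over half of replicates below 10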;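 also: wells of about 30 µL received 50 nL stock; many hits fall short of the cut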
Vif TR-FRET: inhibitors of Vif binding to APOBEC3G peptide, primary screen, biochemical, TR-FRET, GST-Vif 1-94, biotin-A3G peptide, dose response retest (AID 1117319) | TR-FRET GST-Vif / biotin-A3G peptide binding; higher % means a stronger effect; test concentration not given here; strong numbers were not always called active | inhibition, %, or IC50 in µM where a hit was titrated | 260,000 compounds, 0.57% hits;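 active = above the screen mean plus three standard deviations and confirmed in dose response; inconclusive = results disagree or hit not tested in dose response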;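 also: Vif residues 1-94 fused to GST binding biotinylated APOBEC3G peptide 110-148; 0% = full assay without inhibitor and 100% = GST in place of GST-Vif; retest series ran down from 100 µM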
The depositor's hits bear a star; ? = inconclusive; nt = not tested or not shown.

Molecule	UCH37 inh	HNF4A DNA FP	B2AR ag	E coli growth	LANA-H2B inh	A1 inh	Vif TR-FRET
Cc1ccc2nc(NC(=O)C3CCCN(S(=O)(=O)c4cnc[nH]4)C3)sc2c1 (stereo not drawn)	-2.9	0.8	6	0.75	1.5	0.5	?
Cc1ccnc(NC(=O)c2ccc3c(c2)NC(=O)C(C)S3)c1 (stereo not drawn)	-1.2	3.9	6	0.67	1.2	-3.7	-6%
CCN1C(=O)/C(=C/C=C2/SCCN2C)SC1=S	7.5	197	6	0.76	1.1	-13	9%
CCn1cc(S(=O)(=O)Nc2cc(C(=O)OC)ccc2C)cn1	1.2	0.7	5	0.67	-0.2	-0.9	nt
O=C(N/N=C/c1cccc(OCc2ccccc2)c1)c1cccs1	nt	3.2	-4	nt	-4.4	-0.4	0%
S=C(NCCc1ccccc1)NCc1cccc(Cl)c1	3.3	-2.1	-3	0.6	-1.3	-0.4	nt
O=c1c2ccc(Cl)cc2nc(-c2cccc(C(F)(F)F)c2)n1O	4.8	2.3	2	0.78	-12	0.1	25%
COc1cc(C2C3=C(COC3=O)Oc3cc4c(cc32)OCO4)ccc1OC(C)=O (stereo not drawn)	nt	1.6	-37	nt	nt	nt	-7%
COc1cc(OC)cc(C(=O)Nc2cccc3nc(C)ccc23)c1	3.6	5.7	-9	0.71	-4.8	0.3	nt
CCO[C@H]1OC(C(=O)N2CCCCCCC2)=C[C@@H](c2ccccc2)[C@@H]1CCCO	2.1	2.8	-3	0.8	2.2	-1.3	6%
O=C(NCCc1ccccc1)c1ccccc1NC(=O)C1CC=CCC1C(=O)O (stereo not drawn)	0.2	3.0	5	0.67	0.0	0.9	nt
COC(=O)NC(NC(=S)Nc1ccccc1OC)C(Cl)(Cl)Cl (stereo not drawn)	1.8	-0.1	0	0.68	-1.8	-0.1	10%
COC(=O)c1ccccc1NC(=O)CN1CCC(NC(=O)c2ccc(C)cc2)CC1	1.9	2.6	6	0.65	-3.9	0.4	-5%
CCCCCCCCC(=O)NNC(=O)c1c(O)c2ccccc2n(CC)c1=O	2.6	7.2	2	0.69	-14	0.2	11%
CCN(CC)CCCNC(=O)c1nn(-c2ccccc2OC)c(=O)c2ccccc12	5.0	1.0	-5	0.75	-2.8	0.3	4%
Cc1nc(C(=O)NC2CCOCC2)sc1C1(C)CC(c2cccc([N+](=O)[O-])c2)=NO1 (stereo not drawn)	1.3	4.4	-4	nt	-1.0	0.4	-3%
CC(C)(C)c1ccc2c(c1)OCC(C(=O)O)O2 (stereo not drawn)	1.2	-0.2	2	0.69	-3.3	1.3	7%
COc1ccc(NC(=O)CCN2CCN(S(=O)(=O)c3ccc(C(C)C)cc3)CC2)cc1	2.3	-2.8	6	0.68	-3.1	-0.2	10%
Nc1nnnn1CC(=O)N/N=C/c1cccs1	nt	2.5	-4	nt	-5.5	0.1	-8%
COC(=O)[C@]1(Cc2ccccc2)N[C@H](CN(C)C(=O)Nc2ccc(OC)cc2)[C@@H]2C(=O)N(Cc3ccccc3)C(=O)[C@@H]21	2.7	-1.9	2	0.7	-4.6	0.8	0%
COc1ccc(C(=O)NC(=S)NCc2cccnc2)cc1Cl	5.6	0.3	-10	0.63	-1.7	-0.1	8%
COc1ccccc1Nc1nc(-c2sc(NC(=O)c3ccccc3)nc2C)cs1	-0.6	10	8	0.73	1.6	-6.2	4%
CN(Cc1cnn(C)c1)C(=O)c1cc2ccccc2oc1=O	0.7	-2.7	-11	0.71	-1.5	0.5	-4%
COc1ccc(-c2nc3ccccc3c(=O)o2)cc1OC	-141	-1.0	1	0.74	3.9	-2.3	11%
CCCCn1c(N)c(-c2nc3ccccc3s2)c2c([N+](=O)[O-])nn(C)c(=O)c21	7.5	7.7	27	0.72	-0.6	0.1	0%
Cc1cccc(C(=O)OCC(=O)N2CCC(c3ccccc3)=N2)c1O	-14	-1.4	3	0.68	0.6	-0.1	nt
Cc1cc(C)c(C#N)c(Sc2ccc(N)cc2)n1	2.7	-2.6	-13	0.65	2.8	1.3	-5%
O=S(=O)(c1ccc2c(c1)OCCO2)N1C[C@@H]2C[C@H]1CN2S(=O)(=O)c1c(F)cccc1F	1.4	1.8	2	nt	0.6	2.0	nt
Cc1cc(N2CCOCC2)nc2ccc(NC(=O)CCC(=O)N3CCCC(C)C3)cc12 (stereo not drawn)	-314	1.5	-10	0.63	-2.4	0.0	26%
CCn1c(SC)nnc1-c1sc2cc(Cl)ccc2c1Cl	-0.9	0.6	-19	0.63	-1.0	0.7	12%
CC1CCCN(C(=O)NC(=O)c2ccc(Cl)cc2)C1 (stereo not drawn)	1.6	0.9	1	0.68	4.8	1.0	-1%
CCCC(=O)Nc1ccc(C(=O)Nc2cccc(OC)c2)cc1	5.4	-3.6	-6	0.7	-6.1	-5.2	-3%
COC(=O)C1=C(C)N(Cc2ccccc2)C(=NCc2ccccc2)N[C@H]1c1ccccc1	1.5	1.3	29	nt	1.3	-0.6	nt
COc1ccc(C2=NN(C(=O)CSc3ncccn3)C(c3cccc(OC)c3OC)C2)cc1 (stereo not drawn)	-0.6	5.4	3	0.7	5.8	-0.1	2%
COc1ccc(Nc2nc(N3CCN(S(C)(=O)=O)CC3)nc3ccccc23)c(OC)c1	nt	-4.1	22	nt	1.2	-0.1	-9%
Fc1ccccc1Nc1nc(-c2ccncc2)nc2ccccc12	-4.7	2.2	-2	0.69	-7.1	0.2	-29%
COCCCNC(=O)C1CCN(S(=O)(=O)c2ccc3nc4c(c(C(=O)O)c3c2)CCCCC4)CC1	2.9	-0.7	-2	0.68	0.8	0.4	nt
CC1CC(C)CN(C(=O)CSc2ccsc2[N+](=O)[O-])C1 (stereo not drawn)	4.3	3.6	-2	0.71	-0.1	1.7	nt
CC(C)C(=O)Nc1nnc(S(=O)(=O)N2CCCc3ccccc32)s1	5.7	2.9	6	0.77	1.5	0.0	nt
O=C(CCCn1cnc([N+](=O)[O-])n1)Nc1ccc(F)c(Cl)c1	1.3	-1.7	-8	0.69	-1.5	1.0	-1%
CC1CN(S(=O)(=O)c2ccc(C(=O)OCc3ccc(C#N)cc3)cc2)CC(C)O1 (stereo not drawn)	4.9	-0.8	-1	0.68	3.2	1.8	6%
CCCc1nc2n[nH]c(N)c2c2c1CCCC2	5.6	0.6	1	0.71	-0.1	0.1	-4%
CCCCOC(=O)Nc1ccc(C)c(Cl)c1	-2.7	-1.3	-13	0.73	-4.2	-3.6	-6%
CC1=C(C)CC(C(=O)Nc2cccc([N+](=O)[O-])c2)C(C(=O)O)C1 (stereo not drawn)	6.6	-0.4	5	0.67	2.1	0.2	4%
Cc1cc2nnc(SC3CCCCN(C(=O)c4ccc(F)cc4)C3=O)n2c2ccccc12 (stereo not drawn)	-7.2	2.7	-5	0.73	-1.6	0.2	-58%
CC1CCc2sc3nc(NCc4ccco4)n4ncnc4c3c2C1 (stereo not drawn)	0.0	-2.2	6	0.72	-4.1	0.5	?
CC1(C)CC(=O)C2=C(C1)OC(N)=C(C#N)C2CCc1ccccc1 (stereo not drawn)	0.0	-3.3	-8	0.65	6.5	-0.2	3%
CCCN1CNC(=S)N(c2ccc(C(=O)OCC)cc2)C1	3.7	-0.2	-2	0.69	0.9	0.0	nt
COc1ccc(NS(=O)(=O)c2cccc(C(=O)NCCCN3CCCC3=O)c2)cc1	2.6	0.4	-7	0.64	-8.1	0.4	-10%
Cc1nc2sccn2c(=O)c1CCN1CCC(=C(c2ccc(F)cc2)c2ccc(F)cc2)CC1	1.3	2.9	nt	0.67	8.3*	0.5	?

Carrying on.
Molecule	UCH37 inh	HNF4A DNA FP	B2AR ag	E coli growth	LANA-H2B inh	A1 inh	Vif TR-FRET
O=C(Cn1c(COc2ccc(Cl)cc2)nc2ccccc21)NCC(F)(F)F	3.6	-1.9	12	0.73	2.5	-0.4	nt
O=c1cc(CSc2nc3ccccc3c(=O)[nH]2)c2ccc(O)cc2o1	-17	-0.2	-1	0.72	nt	nt	5%
CCC(=O)Nc1cccc(C2=NOC3(C2)C[C@@H](C(N)=O)N(C(=O)c2cc([N+](=O)[O-])cc([N+](=O)[O-])c2C)C3)c1 (stereo partly drawn)	3.2	1.3	-10	nt	-0.4	-0.7	7%
Cc1cccc(NC(=O)c2cccc(Cn3cc(Br)c([N+](=O)[O-])n3)c2)c1C	2.5	0.2	13	0.69	-1.9	0.0	-1%
COc1ccc(C(=O)OC(C)CN2CCOCC2)cc1OC (stereo not drawn)	6.7	2.0	8	0.78	2.2	1.1	6%
CCCC12CN3CCN(CC(C3)/C1=N\NC(=O)c1ccc(F)cc1)C2	nt	-1.3	5	nt	-4.8	0.6	-2%
CSc1nc2ccccc2nc1N(C)S(=O)(=O)c1ccc(C)cc1	-2.4	1.5	-2	0.69	-5.1	0.4	?
Cc1cc(-c2ccc(Cl)cc2)oc(=O)c1NC(=O)c1ccccc1	-52	1.2	-4	0.76	-8.9	1.0	19%
COc1cc(S(=O)(=O)N(C)C)ccc1Br	5.0	0.4	3	0.74	-1.9	0.6	2%
O=S(=O)(c1ccccc1)N1CCN(C(=S)Nc2ccccc2Cl)CC1	0.5	-0.9	-1	0.65	2.1	-1.0	nt
COc1ccc(C(=O)Nn2c(C)nc3ccccc3c2=O)cc1Br	1.5	4.0	9	0.67	-2.6	2.2	-9%
O=C(COC(=O)CNC(=O)c1ccccc1F)NCCNC(=O)COC(=O)CNC(=O)c1ccccc1F	2.6	-4.2	3	0.72	3.1	-0.1	-1%
COc1ccc(NC(=O)C2CCN(c3ncnc4c3nc3n4CCCCC3)CC2)c(OC)c1	2.9	3.9	-24	0.7	-0.7	0.2	-3%
COC(=O)c1c(NC(=O)C(=O)NCCCN2CCOCC2)sc2c1CCC2	5.4	1.5	5	0.68	-6.8	0.4	7%
CCOC(=O)C1(Cc2cccc(OC)c2)CCCN(Cc2nccn2CC)C1 (stereo not drawn)	3.7	-0.3	-9	0.68	3.9	-1.6	4%
CC(=O)Nc1ccc(NC(=O)CC2SC(=O)N(CC(=O)c3ccccc3)C2=O)cc1 (stereo not drawn)	2.7	-5.2	-4	0.63	-0.1	0.1	nt
CC(C)CN(C(=O)COC(=O)Cc1c[nH]c2ccccc12)C1CCS(=O)(=O)C1 (stereo not drawn)	1.3	2.6	2	0.64	2.0	0.0	-2%
Cc1ncc2c(n1)NC(=O)NC2	1.0	-0.2	0	0.63	nt	nt	-7%
CCOc1ccc(S(=O)(=O)NCCC(=O)N2CCCC(C)C2)cc1 (stereo not drawn)	1.7	-0.9	0	0.72	0.4	-0.4	-4%
Cc1ccc(CNC(=O)CCCC(=O)Nc2cc(C)on2)cc1	-1.6	-1.2	2	0.7	-4.5	0.3	nt
CSc1ccc(C#N)cc1NC(=O)c1cccc(Cl)c1	0.9	2.3	4	0.7	1.0	0.1	-24%

Given with two lines to a compound: entries from further up
Fields: UCH37 inh | HNF4A DNA FP | B2AR ag | E coli growth | LANA-H2B inh | A1 inh | Vif TR-FRET
CCOC(=O)C1(Cc2cccc(OC)c2)CCCN(Cc2nccn2CC)C1 (stereo not drawn)
→ 3.7 | -0.3 | -9 | 0.68 | 3.9 | -1.6 | 4%
Cc1cccc(NC(=O)c2cccc(Cn3cc(Br)c([N+](=O)[O-])n3)c2)c1C
→ 2.5 | 0.2 | 13 | 0.69 | -1.9 | 0.0 | -1%
